Compound activity (PubChem)
Calb biofilm kill = mixtures killing C. albicans biofilm. C. albicans biofilm persisters + clotrimazole, fluorescence viability; primary screen in compound mixtures of four per well. inhibition, % at 7.6 µM. 0.02% of 120,000 active. AID 1242;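 active = inhibition above 30.3% in the primary screen of four-compound pools, then above 30% when the compound was retested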;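 note: compounds exposed to preformed 24 h biofilms for 48 h; the number belongs to the whole pool; some results filed as inactive read as strong as hits; inactives centre near 12; 0% = biofilm with clotrimazole alone and 100% = kill control; retested singly at about 60 µM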
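Incubation: 24 h biofilm formation, then 48 h compound exposure, 37 °C | Material: C. albicans biofilms | Buffer or medium: RPMI/MOPS medium, pH 7.0 | Measured by: 2-h Alamar Blue fluorescence, 535/590 nm excitation/emission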
* = called active by the depositor. Some of the compounds tested; count on the stated rates, not on these rows.

compound	Calb biofilm kill
COc1ccc(C(=O)C2CCCN(C(=O)c3ccc4cc[nH]c4c3)C2)c(C)c1 (stereo not drawn)	19
CCOC(=O)c1sc(NC(=O)c2ccncc2)c(C#N)c1C	11
CC(C)NC(=O)c1c2c(nc3ccccc13)CCCC2	20
Cc1ccccc1OCC(=O)NC(=S)Nc1ccc(N2CCCC2)cc1	11
CCCCCC(=O)Nc1ccc2ccccc2c1	-4
COc1ccccc1N1C(=O)CSC1=NC(=O)c1ccccc1	14
Cc1nc2ccccc2n1CC(O)COc1ccc(Br)cc1 (stereo not drawn)	36
O=C1SC(SC(=Nc2ccccc2)Nc2ccccc2)C(=O)N1c1ccccc1 (stereo not drawn)	9
COc1ccc2sc(SCCCS(=O)(=O)O)[n+](CCCS(=O)(=O)[O-])c2c1	8
C/C(=N\NC(=O)Cc1cccc2ccccc12)c1ccncc1	8
COc1cc(Cl)ccc1NC(=S)N(CCN1CCOCC1)C1CCN(C(C)=O)CC1	25
CCOc1ncccc1C(=O)Nc1cccc(-c2nnc3n2CCCCC3)c1	15
CCCCC(=O)Nc1ccc(C(=O)Nc2cc(C(F)(F)F)ccc2Cl)cc1	17
Cc1c(C(=O)N(Cc2ccccc2)Cc2cccnc2)cnn1-c1ccc(F)cc1	10
N#Cc1c(/N=C/c2cc3ccccc3s2)sc2c1CCC2	10
CCC(C(=O)NCc1ccccc1OC)c1ccccc1 (stereo not drawn)	9
CC(=O)NC1=NN(C(C)=O)C(c2ccccn2)S1 (stereo not drawn)	-7
CN(C)C(=O)COC(=O)c1ccccc1Nc1ccc(SC(F)F)cc1	4
COc1ccc(Nc2nnc(-c3ccc(C)cc3)c3ccccc23)cc1C(=O)N1CCCCC1	-5
COc1ccc(/C=N/NC(=O)CNC(=O)c2ccc(S(=O)(=O)N3CCCC3)cc2)c(OC)c1	2
Cc1ccc(C(=O)N2CCN(c3ccc(NC(=O)CSc4ccc(Cl)cc4)cc3)CC2)cc1	9
CCC1(c2ccccc2)NC(=O)N(Cc2cccc([N+](=O)[O-])c2)C1=O (stereo not drawn)	8
COC(=O)c1cccnc1-n1c(=O)c2cccnc2n(Cc2cccc([N+](=O)[O-])c2)c1=O	15
Cc1ccccc1C1CC(c2cccs2)=NN1S(C)(=O)=O (stereo not drawn)	6
c1ccc2c(c1)ncn2-c1ccc(-c2ccnc3ncnn23)cc1	8
Cc1ccc(C2=NN(C(=O)CCCC(=O)O)C(c3ccco3)C2)cc1 (stereo not drawn)	13
CC(C)Oc1ccc(/C(O)=C2/C(=O)C(=O)N(CCCn3ccnc3)C2c2cccnc2)cc1 (stereo not drawn)	15
CC1=CC(C)C(C(=O)O)C(C(=O)N2CCN(C)CC2)C1 (stereo not drawn)	15
CN(/N=C/c1ccc(C(C)(C)C)cc1)C1=NCCN1	9
NC(N)=NC(N)=Nc1ccc(O)cc1	38
Cc1c(F)cccc1NS(=O)(=O)c1ccc2c(c1)NC(=O)CO2	13
CN(C)c1ccc(NC(=O)CC(NCc2ccccn2)C(=O)O)cc1 (stereo not drawn)	4
COc1ccc(NC(=O)c2cccc(S(=O)(=O)Nc3ccc(Br)cc3)c2)cn1	11
CC1CCCC(C)N1C(=O)COC(=O)CCc1nc2ccccc2c(=O)[nH]1 (stereo not drawn)	19
CC(C)Oc1cc(S(=O)(=O)N2CCCCC2)ccc1N	-6
O=C(NCCCn1ccnc1)C(=O)NCC(c1cccnc1)N1CCN(c2ccc(F)cc2)CC1 (stereo not drawn)	18
O=c1ccn(-c2ccccc2)[nH]1	4
CCOC(=O)C(=NC1CCS(=O)(=O)C1)NNc1cc(Cl)ccc1Cl (stereo not drawn)	18
Cc1cc2ccccn2c1C(=O)Nc1cccc(Cl)c1	11
CC(C)(C)NC(=O)C[n+]1ccc(C(N)=O)cc1	15
O=[N+]([O-])c1ccc(NC(=S)NCC(c2cccnc2)N2CCOCC2)cc1 (stereo not drawn)	0
COc1ccc(-c2nc3ccccc3c(=O)n2NC(=O)c2cccnc2Cl)cc1OC	-9
CN(Cc1nccn1C)C(=O)CCc1nnc(CCC2CCCCC2)o1	19
Cc1cccc(N2C(=O)C3CC3C2=O)c1 (stereo not drawn)	15
Cn1c(=O)c2c(ncn2CC(=O)OCC(=O)Nc2cccc(Cl)c2)n(C)c1=O	7
N/C(CS(=O)(=O)c1ccccn1)=N\OC(=O)c1ccc(Cl)cc1	24
COc1ncccc1-c1nnn(-c2ccc(Cl)c(Cl)c2)n1	22
CCSc1nc2c(c(-c3ccc(C)o3)c1C#N)CCCC2	9
Cc1ccccc1NS(=O)(=O)c1ccc2c(c1)NC(=O)CO2	55
CN1CCC(N(C)C(=O)CCc2nc3ccccc3n2-c2ccccc2)CC1	15

Random excerpt: seven compounds from above, in no set order.
compound	Calb biofilm kill
Cc1cc2ccccn2c1C(=O)Nc1cccc(Cl)c1	11
CC(C)(C)NC(=O)C[n+]1ccc(C(N)=O)cc1	15
COc1ccc(-c2nc3ccccc3c(=O)n2NC(=O)c2cccnc2Cl)cc1OC	-9
CCOC(=O)C(=NC1CCS(=O)(=O)C1)NNc1cc(Cl)ccc1Cl (stereo not drawn)	18
COc1ccc(NC(=O)c2cccc(S(=O)(=O)Nc3ccc(Br)cc3)c2)cn1	11
Cn1c(=O)c2c(ncn2CC(=O)OCC(=O)Nc2cccc(Cl)c2)n(C)c1=O	7
CN(C)c1ccc(NC(=O)CC(NCc2ccccn2)C(=O)O)cc1 (stereo not drawn)	4

Continued:
compound	Calb biofilm kill
Cc1ccc(N2C(=O)CN=C2Nc2nc(C)cc(C)n2)cc1	11
Cc1ccnc2nc(C(=O)NC3CCCc4ccccc43)nn12 (stereo not drawn)	14
Cc1cc(NC(=O)CSc2ncccn2)no1	-12
CC(C)=CCN1CCN(Cc2cnc(N3CCOCC3)s2)CC1CCO (stereo not drawn)	9
O=S(=O)(c1ccccc1)c1ncc(C(F)(F)F)cc1O	18
CC(=O)OCC(=O)[C@H]1CC[C@H]2[C@@H]3CC=C4C[C@@H](O)CC[C@]4(C)[C@H]3CC[C@]12C	9
CCOC(=O)C1=C(C)N=C2SCCC(=O)N2C1c1ccc(OC)cc1 (stereo not drawn)	7
COC(=O)[C@H](CC(C)C)NC(=O)Nc1ccc(S(N)(=O)=O)cc1	8
COc1cc(/C=C/C(=O)O)ccc1OCc1ccc([N+](=O)[O-])cc1	-2
Cc1nn(CC(=O)Nc2cccnc2)c(C)c1[N+](=O)[O-]	5
CCN(CC)CCCNc1cc(C)nc2cc(-c3cccs3)nn12	-3
COc1ccc(Nc2nc(N)nc(CSC(=S)N3CCC(C)CC3)n2)cc1	6
CCNC(=S)Nc1cccc([N+](=O)[O-])c1	16
Cc1cc(C(=O)NCCN2C(=O)S/C(=C\c3cccs3)C2=O)ccc1[N+](=O)[O-]	13
Cc1ccc(C(=O)COC(=O)c2cccs2)cc1	3
O=C(Nc1cccc(O)c1)c1ccc(C(F)(F)F)cc1	8
C1CNC(C23CC4CC(CC(C4)C2)C3)=N1	8
COc1ccccc1Nc1nc(-c2ccc3c(c2)NC(=O)CO3)cs1	16
O=C(CCNC(=O)c1ccc(Cl)cc1)Nc1c(F)c(F)cc(F)c1F	-7
O=C(CSc1ccncc1)Nc1ccc(S(=O)(=O)Nc2nccs2)cc1	4
O=C(N/N=C/c1cccs1)C(=O)N1CCCC1	16
CC(=O)Nc1ccc2nc(C3CC3)n(Cc3ccc(Cl)cc3)c(=O)c2c1	26
CCOC(=O)c1[nH]c2ccccc2c1NC(=O)CC(C)C	-5
COC(=O)C1(c2ccccc2)NC(c2cccs2)C2C(=O)N(c3ccccc3)C(=O)C21 (stereo not drawn)	13
Cc1nn(C)c(C)c1CNC(=O)Nc1ccc2c(c1)OCO2	11
O=C(CNC(=O)c1ccccc1F)N/N=C/c1cc(Br)ccc1OC(=O)/C=C/c1ccco1	10
Cc1cc(-c2nnc(CCC(=O)N(C)Cc3cccc4ccccc34)o2)no1	26
CC1(C)Cc2c(sc(N)c2C#N)C(C)(C)N1	21
O=C(O)c1cc([N+](=O)[O-])c(N2CCCC2)c([N+](=O)[O-])c1	1
O=S(=O)(Nc1nc2ccccc2nc1-[n+]1cccc(N=C([O-])c2ccc(Cl)cc2)c1)c1ccccc1	14
Cc1oc(-c2cccs2)nc1CN1CCC(CO)(CCOc2ccccc2)CC1	24
Cc1cc(C)cc(NC(=O)Cc2ccc(-n3cccc3)cc2)c1	5
CC1CN(c2ccc(Cl)cc2[N+](=O)[O-])CCN1S(C)(=O)=O (stereo not drawn)	2
CN(C)S(=O)(=O)c1cccc(-c2nn(-c3ccccc3)cc2/C=C2\SC(=S)NC2=O)c1	5
CC1=C(C(=O)OCC2CCCO2)C(c2ccsc2)C2=C(CCCC2=O)N1 (stereo not drawn)	17
O=C(O)c1ccc(Cl)c(S(=O)(=O)Nc2ccc3cn[nH]c3c2)c1	8
CCc1nc(Cl)c(C#N)c2c1CCCC2	9
COP(=O)(OC)c1nc(-c2ccccc2)oc1N1CCOCC1	14
CCOC(=O)C(=O)N(Nc1ccc(C)cc1)c1ccc(C)cc1	8
Cc1nc2nc(CC(=O)O)[nH]n2c(=O)c1[N+](=O)[O-]	16
CCOC(=O)c1cnc2c(c(C3CC3)nn2C)c1N1CCOCC1	25
O=C(COC(=O)[C@H](Cc1ccccc1)NC(=O)c1cccs1)Nc1ccccc1C(F)(F)F	11
CN(C(=O)Nc1ccccc1)C1CCCCC1	0
O=c1c2ccccc2c(/C=N/NS(=O)(=O)c2ccccc2)c(O)n1-c1ccccn1	10
Cc1ccnc(NS(=O)(=O)c2ccc(NC(=O)c3ccc(S(=O)(=O)N4CC(C)OC(C)C4)cc3)cc2)n1 (stereo not drawn)	9
CC(C)(C)[C@@H]1C=C(C(=O)NC2CC2)O[C@H](OCc2ccc(CO)cc2)C1	24
Cc1cc(C)n(CCN(C)Cc2nc(Cc3ccccc3F)no2)n1	6
O=C(NCC1CCN(S(=O)(=O)c2ccccc2)CC1)Nc1ccc(F)cc1	29
S=c1nc(-c2cc(Cl)ccc2Cl)[nH][nH]1	2
CCO[C@@H]1OC(C(=O)Nc2ccccc2)=C[C@H](c2csc3ccccc23)[C@H]1CCCO	5

(more compounds)
compound	Calb biofilm kill
CCOC(=O)c1sc2nc(C)[nH]c(=O)c2c1C	13
COc1ccc(/C=C/C(=O)Nc2ccc3c(c2)OCCO3)cc1OC	19
O=C(NCc1ccc2[nH]c3c(c2c1)CCCC3)c1ccc(S(=O)(=O)N2CCCC2)cc1	15
CC1CC(NC(=O)CC#N)CC(C)(C)C1 (stereo not drawn)	18
Cc1cccc(N2CCN(C(=O)/C=C/c3ccco3)CC2)c1C	10
Cc1ccc(-n2nc(C)c3c(C(=O)OCC(=O)N(C)C4CCS(=O)(=O)C4)cc(-c4ccccc4)nc32)cc1 (stereo not drawn)	-4
COc1ccc(-c2ccc(S(=O)(=O)n3nc(OC(=O)c4cccs4)cc3N)cc2)cc1	20
Cc1ccc(S(=O)(=O)N(C)c2ccc(OC(=O)c3ccc(=O)[nH]c3)cc2)cc1	9
Cc1nc(-c2ccc(Cl)cc2)sc1C(=O)CBr	10
COc1ccc(NC(=O)C2CCCO2)cc1 (stereo not drawn)	8
COc1ccc(OCCCC(=O)Nc2nc(-c3ccccn3)cs2)cc1	9
NS(=O)(=O)c1ccc(NC(=S)NCCc2ccccc2)cc1	8
COc1ccc(-n2cc(-c3ccc(C)cc3)[n+]3c2SCC3)cc1	15
O=C(CCCc1ccccc1)Nc1ccc(S(=O)(=O)N2CCOCC2)cc1	18
COc1cc2[nH]c(=S)n(C3CCN(Cc4ccccc4)CC3)c(=O)c2cc1OC	12
COc1ccc(/C(=N\O)c2nccc3cc(OC)c(OC)cc23)cc1OC	14
CC1CC(C)CN(S(=O)(=O)N2CCC(C(=O)NCc3ccco3)CC2)C1 (stereo not drawn)	7
CN1C(=S)SC(/[N+]([O-])=C\c2ccccc2F)C1(C)C (stereo not drawn)	14
COc1ccc(-c2ccc(CCC(=O)O)n2CC2CCCO2)cc1 (stereo not drawn)	4
O=C(COC(=O)c1cc(-c2ccncc2)nc2ccccc12)Nc1ccc2c(c1)OCO2	8
C/C(=N\NC(=S)Nc1c(C)cccc1C)c1cc2ccccc2o1	21
N#C/C(=C\c1ccc[nH]1)C(=O)c1ccccc1	24
CCOc1cc(/C=N/NC(=O)c2ccc(CN3CCOCC3)cc2)ccc1OCc1ccccc1	13
O=C(COC(=O)CCc1nc2ccccc2c(=O)[nH]1)NC1CCS(=O)(=O)C1 (stereo not drawn)	12
CCc1nnc(NC(=O)[C@@H](NC(=O)c2cc(OC)cc(OC)c2)C(C)C)s1	21
COCCn1c(C)cc(C(=O)COC(=O)c2cncc(Br)c2)c1C	19
Cc1onc(NC(=O)c2ccc([N+](=O)[O-])o2)c1Br	4
NC(N)=NC(N)=NCCc1ccccc1	10
CCCN(C(=O)c1ccco1)c1nnc(-c2ccncc2)s1	3
Cc1cccc(N2CN=c3s/c(=C\c4ccccn4)c(=O)n3C2)c1	0
COc1cccc(CC2(CO)CCN(C(=O)NC3CCCCC3)CC2)c1	12
Cc1ccc2nc(-c3ccsc3)c(NC3CCCC3)n2c1	5
CCOC(=O)CSc1nc(C2CC2)cc(-c2ccc(Cl)cc2)c1C#N	10
C=CCn1c(O)c(N=NC(=S)Nc2ccc(OC)c(Cl)c2)c2ccccc21	12
